Screening results from PubChem BioAssay.
TRPV1 PAM – human TRPV1 potentiation; TRPV1-expressing cells, Fluo-8 calcium influx, capsaicin EC20 potentiation; host cell line not named in the record; control for the full effect not named in the record; potentiation, % at 8.33 µM; 0.02% of 320,000 active; AID 540277; active means potentiation above 80%; inconclusive means 30% to 80%; inactive means below 30%; note: 0% is about no effect
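Fluo-8 calcium influx in TRPV1-expressing cells, kinetic read (ex 480/em 520 nm). Compound added and read 3 min for agonist activity, followed by capsaicin at EC20 final and 2 min further read for enhancement.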
D2 agonist – human D2 receptor agonism in beta-arrestin assay | P14416 | DiscoveRx PathHunter D2 beta-arrestin, luminescence, 90 min; 100% = 57 uM dopamine signal | activation, % (concentration not given with the values) | 0.084% of 360,000 active; in the data active = activation above about 40%; inconclusive = about 15% to 40%; inactive = below about 15%; note: compound concentration not given in the record; the text of the record calls up to 30% inactive
Target sequence (P14416 whole entry, looked up): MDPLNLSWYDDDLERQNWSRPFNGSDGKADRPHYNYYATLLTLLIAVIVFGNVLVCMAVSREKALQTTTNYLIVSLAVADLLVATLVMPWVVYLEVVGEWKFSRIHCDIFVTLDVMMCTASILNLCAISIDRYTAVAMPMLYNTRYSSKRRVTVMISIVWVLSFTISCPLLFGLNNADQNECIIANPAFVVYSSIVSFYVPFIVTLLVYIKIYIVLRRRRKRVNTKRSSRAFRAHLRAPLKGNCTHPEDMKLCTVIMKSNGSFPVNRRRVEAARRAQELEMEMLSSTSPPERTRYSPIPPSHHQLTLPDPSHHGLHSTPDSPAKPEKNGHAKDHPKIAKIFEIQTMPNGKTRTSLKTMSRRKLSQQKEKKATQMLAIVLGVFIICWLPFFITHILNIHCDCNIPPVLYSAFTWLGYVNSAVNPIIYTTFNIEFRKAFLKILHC
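DiscoveRx PathHunter D2 beta-arrestin cells (2,100/well) attached overnight, then compound-stimulated 90 min at 37 C in HBSS/10 mM HEPES/0.1% Tween-20 buffer; beta-galactosidase complementation read by luminescence after 1 h at ambient temperature. Dopamine 57 uM final (EC100) as control.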
D2 potentiator – human D2 receptor positive allosteric modulation; P14416; DiscoveRx D2 beta-arrestin cells, luminescence, 90 min; 100% = 57 uM dopamine signal; potentiation, % (concentration not given with the values); 0.23% of 360,000 active; AID 624464; active = potentiation of 50% or more; inconclusive = 30% to 50%; inactive = 30% or less;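 note: compound concentration not given in the record; tested on top of an EC20 dose of dopamine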
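PathHunter beta-arrestin assay in DiscoveRx D2 cells. Compounds were added with an EC20 of dopamine (50 nM final) for 90 min at 37 deg C. Luminescence was read 1 h after detection reagent, with 57 uM dopamine as the EC100 control.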
Sfp inh – inhibitors of Bacillus subtilis Sfp phosphopantetheinyl transferase; Q9F4F7; Biochemical Sfp PPTase activity, qHTS; Potency, µM, without a hit: max response, negative = inhibition, actives largely listed as inhibitors; 3.5% of 310,000 active; active = well fitted inhibition curve with a large enough effect; inconclusive = small, poorly fitted or top-dose-only effect, or another doubt; inactive = no such curve, though single readings can be large or run the other way;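 note: the enzyme is Sfp with the accession as filed and its product quenches rhodamine fluorescence; potency is the fitted concentration of half-maximal effect; 0% = enzyme reaction without inhibitor and -100% = no enzyme wells; top concentration of the series not given in the record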
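Sfp 15 nM + cpd, 15 min RT; start w/ rhodamine-CoA 5 uM, BHQ-2-YbbR 12.5 uM (final); 50 mM Hepes pH 7.6, 10 mM MgCl2, 0.01% NP-40, 0.01% BSA; read 525/598 nm at 0 and 30 min.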
Six1-Eya2 inh – blocks human Six1 binding to Eya2; Q15475+O00167; AlphaScreen GST-Six1/His-Eya2 binding, biochemical; active compounds read low; control for the full effect not named in the record; activity change, % (test concentration not listed); 0.56% of 360,000 active; in the data active = activity change below about -65%; inconclusive = about -30% to -65%; inactive = above about -30%; note: % is set by controls: 0 for no effect and ±100 for the full control effect
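GST-Six1 + His-Eya2 (5X stock: 250/500 nM); Tris pH 8.0, 300 mM NaCl, 0.05% BSA, 0.02% Tween 20; GSH donor/Ni acceptor beads; 1 h 37 °C dark; AlphaScreen readout.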
PINK1 expr mod – PINK1 expression modulation. PINK1 immunofluorescence, high-content cytometry, 24 h. Potency, µM (top dose mostly 76.6 µM), inactives show at the top dose activation (PINK1 increase), most hits filed as activators. 0.2% of 410,000 active; active = well fitted activation curve with a large enough effect; inconclusive = small, poorly fitted or top-dose-only effect; inactive = flat fitted curve, though single readings scatter; cell line not stated here;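 note: potency is the fitted concentration of half-maximal effect; % of control where 0% means no effect; nearly all actives have a fitted effect of over 65% in size; a mitochondrial uncoupler was the plate control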
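Readout is PINK1 immunofluorescence, quantified alongside mitochondrial, cell and nuclear markers by laser-scanning microplate cytometry. Cells from a stable line were exposed to compound titrations (5 concentrations) for 24 hours, with CCCP controls.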
CtBP-E1A inh – blocks the CtBP interaction with E1A | AlphaScreen GST-E1A/His-CtBP binding, 1536-well; active compounds read low; control for the full effect not named in the record | AID 651724 | activity change, % (test concentration not listed) | 0.49% of 340,000 active; in the data active means activity change below about -65%; inconclusive means about -30% to -65%; inactive means above about -30%; note: % is set by controls: 0 for no effect and ±100 for the full control effect
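Protein mix (5X: 125 nM each GST-E1A, His-CtBP) was incubated with pinned compound 2 h at 37 deg C in dark, in 50 mM Tris pH 8.0 buffer with 300 mM NaCl. Glutathione donor and nickel acceptor beads followed; AlphaScreen signal read after 1 h.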
Starred values were filed as active, the others as inactive; ? = inconclusive; nt = no result given; [ ] = another dose, or the depositor's remark.

Sample of the layout, 4 compounds:
SMILES	TRPV1 PAM	D2 agonist	D2 potentiator	Sfp inh	Six1-Eya2 inh	PINK1 expr mod	CtBP-E1A inh
Cc1ccc(S(=O)(=O)N(C)c2ccc(C(=O)N3CCC(C(N)=O)CC3)cc2)cc1	-4	-2.8	-1	17%	10	-3.2%	6
O=C(CN(Cc1cccs1)C(=O)CNS(=O)(=O)c1ccc(Cl)cc1)NCc1ccco1	17	-2.1	0	8%	-1	-0.9%	-1
CCc1noc(C)c1C(=O)Nc1nc2c(C)cccc2s1	2	-1.9	1	nt	9	4.6%	3
O=C(CCCN1C(=O)/C(=C/c2ccccc2Cl)SC1=S)NNC(=O)c1ccc(Cl)cc1Cl	8	-1.1	1	?	18	6.6%	0

Results, from the start:
SMILES	TRPV1 PAM	D2 agonist	D2 potentiator	Sfp inh	Six1-Eya2 inh	PINK1 expr mod	CtBP-E1A inh
Cc1ccc(S(=O)(=O)N(C)c2ccc(C(=O)N3CCC(C(N)=O)CC3)cc2)cc1	-4	-2.8	-1	17%	10	-3.2%	6
O=C(CN(Cc1cccs1)C(=O)CNS(=O)(=O)c1ccc(Cl)cc1)NCc1ccco1	17	-2.1	0	8%	-1	-0.9%	-1
CCc1noc(C)c1C(=O)Nc1nc2c(C)cccc2s1	2	-1.9	1	nt	9	4.6%	3
O=C(CCCN1C(=O)/C(=C/c2ccccc2Cl)SC1=S)NNC(=O)c1ccc(Cl)cc1Cl	8	-1.1	1	?	18	6.6%	0
Cc1ccc2nc(SCC(=O)OCc3ccccc3)nc(=O)n2c1	-21	0.2	-5	nt	-9	-0.5%	-28
CN1CCN(C(=O)c2ccccc2-c2nc(-c3ccccc3)no2)CC1	-4	1.2	-13	-18%	2	-1.8%	2
CCN1CCN(c2cc(C)c3cc(NC(=O)c4cccnc4Cl)ccc3n2)CC1	12	-2.9	-16	1%	-4	3.1%	-6
CC/C=C/C(=O)N1CC2(CC(c3cccc(NC(=O)COc4ccc(Cl)cc4)c3)=NO2)C[C@H]1C(N)=O (stereo not given in full)	?	0.4	1	-5%	-1	2.0%	0
COc1cc(/C=C2\C(=N)N3N=C(S(C)(=O)=O)SC3=NC2=O)cc(OC)c1OCCOc1cccc(C)c1	1	1.4	-2	-5%	2	9.0%	4
O=C(COc1ccccc1[N+](=O)[O-])N(Cc1ccccc1)c1ccccn1	1	?	11	7%	0	-0.5%	0
Cc1csc(NC(=O)c2c(-c3c(Cl)cccc3Cl)noc2C)n1	-2	-2.0	-7	7%	10	3.0%	0
COc1ccccc1S(=O)(=O)N(C)C[C@H]1OCc2cnnn2CCCC(=O)N([C@H](C)CO)C[C@@H]1C	nt	-2.1	0	nt	3	-1.6%	6
CCOc1ccc(C(=O)O)cc1OC	nt	-2.3	-6	20%	16	-2.5%	-2
CC1CCC2C(=O)N(c3ccc(C(=O)Oc4cccc5cccnc45)cc3)C(=O)C2C1 (stereo not given)	-4	1.5	-3	10µM*	?	-0.3%	-29
O=C(CN1C(=O)NC2(CCCC2)C1=O)Nc1cc(C(F)(F)F)ccc1N1CCCCC1	-15	3.6	2	nt	2	4.7%	-14
Cc1ccc(N(CC(O)CN2CCCCC2)S(=O)(=O)c2ccccc2)cc1 (stereo not given)	7	-2.6	-26	8%	4	-0.4%	-7
Cc1cccc(C(=O)NCCC(=O)Nc2ccc(C)c(F)c2)c1	13	-1.3	-7	12%	-6	2.8%	0
CC1(OC(=O)CCc2ccccc2)C(=O)C=C2C=C(c3ccc(C#N)cc3)N(Cc3ccccc3)C=C2C1=O (stereo not given)	?	12	4	?	-29	1.1%	?
CCC(CO)Oc1cc(NCc2ccc(C)c(C)c2)c2ncn(C(C)C)c2c1 (stereo not given)	nt	1.2	-1	nt	-29	?	23
CN1CCN(C2=Cc3cc(Cl)ccc3Sc3cc(F)ccc32)CC1	25	-5.3	-49	1%	-21	5.4%	-24
CCC(=O)c1ccc(OCC(=O)OCC(=O)Nc2cccc(S(=O)(=O)N3CCOCC3)c2)cc1	nt	1.9	-29	nt	0	0.5%	-4
COc1ccccc1CNc1nc(NCc2ccccc2F)c2sccc2n1	nt	-1.4	-16	nt	-10	?	-9
CCCn1c2c(c(O)c(C(=O)Nc3nc4ccccc4s3)c1=O)CCCC2	-4	-2.6	-11	11%	31	5.1%	31
COc1cc2c(cc1OC)C1=C(C#N)CC/C(=N\S(=O)(=O)c3cccc(Cl)c3)N1CC2	26	-1.8	-5	2%	-9	-41%[inhibitor][38.3 µM]	-16
COCCCn1cnnc1SCC(=O)Nc1ccc(S(=O)(=O)N2CCCC2)cc1	9	-3.0	-1	14%	0	0.1%	0

Going on with the list:
SMILES	TRPV1 PAM	D2 agonist	D2 potentiator	Sfp inh	Six1-Eya2 inh	PINK1 expr mod	CtBP-E1A inh
COc1ccc(N2C(=O)CC(N(Cc3ccc(S(N)(=O)=O)cc3)C(C)=O)C2=O)cc1 (stereo not given)	9	-1.7	-16	-3%	21	-2.7%	2
O=C(Nc1ccc(S(=O)(=O)Nc2ccccn2)cc1)c1cccc([N+](=O)[O-])c1	?	3.4	16	3%	4	-1.6%	5
CCCOc1cccc(C(=O)Nc2cccnc2)c1	-26	0.4	-13	26%	0	0.1%[38.3 µM]	-8
CC(=O)Nc1ccc(S(=O)(=O)c2ccc([N+](=O)[O-])cc2)cc1	-29	53*	-3	5%	-5	0.4%	nt
O=C(COc1ccc(F)c(Cl)c1)N1CCN(c2ccccn2)CC1	21	-3.6	-8	10%	0	0.6%	9
Cc1nn(CC2CCCCC2)c(N)c1-c1ccccc1	10	-1.7	-23	6%	-10	0.6%	-7
COc1ccc2ccccc2c1CNCc1ccccn1	5	1.8	-5	14%	?	0.4%[38.3 µM]	?
COC(=O)c1ccc2nc(C3CCCCC3)c(CC(C)(C)C)n2c1	nt	-6.1	-11	nt	-5	?	6
Cc1ccc(Nc2nc(-c3sc(NC(=O)c4ccco4)nc3C)cs2)cc1	-6	4.3	-3	16µM*	-4	-1.0%	-2
CC1(C)CC(=O)C=C(c2cccs2)C1	nt	-2.7	-14	nt	2	-0.6%	-19
CCCCNC(=O)c1cc2c(=O)n3cccc(C)c3nc2n(CCN2CCOCC2)c1=N	-13	0.3	0	17%	-13	-0.4%	-1
CC(NC(=O)CCSc1nc(-c2ccc3c(c2)OCO3)cc(C(F)(F)F)n1)c1ccccc1 (stereo not given)	-1	-5.3	-9	?	4	-0.4%	7
COc1ccc(NC(=O)N2CCCc3cc(C)ccc32)c(OC)c1	-13	-2.5	1	3%	0	-0.9%	5
CC(=O)N(Cc1cccs1)Cc1cc2cc(C)c(C)cc2nc1Cl	-1	-0.6	-1	-2%	2	0.3%	7
CCc1cc(=O)oc2c(C)c(OC(C)C(=O)N3CC[C@@]4(O)CCCC[C@H]4C3)ccc12 (stereo not given in full)	-2	-8.8	-23	5%	-1	0.2%	1
O=C(Nc1nc2c(s1)CCCC2)c1ccc(S(=O)(=O)N2CCCc3ccccc32)cc1	7	8.8	-19	17%	-11	2.0%	-26
NC(COCc1ccccc1)c1csc(Nc2ccc(C(=O)c3ccccc3)cc2)n1 (stereo not given)	nt	-1.8	5	nt	-8	-1.2%	-7
O=C(NCN1CCN(c2ccccc2F)CC1)c1ccccc1	12	0.7	-42	14%	0	nt	1
COc1ccc(NC(=O)c2ccc(-c3ccc([N+](=O)[O-])cc3)o2)cc1	0	1.2	0	-76%	-15	9.1%	-10
COc1ccc(-c2coc3c(C(=O)NCC4CCOCC4)cccc23)c(C)c1	nt	1.2	-19	nt	-13	0.3%	-8
O=C(NN=C1CCCCC1)Nc1ccccc1Cl	-13	-2.5	-17	nt	-1	6.8%	2
CCOC(=O)N1CCN(C(=O)Cn2nc(-c3ccc(Cl)cc3)ccc2=O)CC1	6	-3.5	-12	7%	-7	3.8%	2
CC(C)[C@H](NC(=O)c1cccc(S(=O)(=O)N2CCOCC2)c1)C(=O)OCC(=O)Nc1cccc(Br)c1	nt	-1.0	-2	nt	-2	6.2%	0
O=C(CC1SC(N2CCCC2)=NC1=O)Nc1ccc(C(=O)Nc2ncccc2O)cc1 (stereo not given)	2	0.7	-18	nt	-7	6.5%	2
Cc1ccc(-n2c(=O)c3ccccc3n(CC(=O)C(C)(C)C)c2=O)cc1	3	-2.9	-6	14%	4	-0.7%	7

New compounds follow:
SMILES	TRPV1 PAM	D2 agonist	D2 potentiator	Sfp inh	Six1-Eya2 inh	PINK1 expr mod	CtBP-E1A inh
CC(=O)c1c(N2CCOCC2)nc(=S)n(-c2ccc([N+](=O)[O-])cc2)c1C	-6	-4.0	-1	-14%	4	0.9%	0
Cc1nc(NS(=O)(=O)c2ccccc2)sc1NC(=O)OCCN(C)C	-30	3.3	-5	20µM*	3	-0.2%	1
Cc1nn(Cc2ccc(C(=O)N/N=C/c3ccncc3)o2)c(C)c1Cl	0	-0.3	-3	4%	-2	0.2%	-10
COc1ccc2c(CCNC(=O)Nc3ccccc3)c[nH]c2c1	-2	2.0	-7	11%	-6	0.9%	-7
Nc1sc(-c2ccccc2)cc1C(=O)N/N=C/c1ccc(Cl)cc1	7	9.2	-15	-13%	-6	4.7%	-5
Cc1c(C)c2ccc(OC(C)C(=O)NCCN3CCOCC3)c(C)c2oc1=O (stereo not given)	-3	-2.7	-5	20%	-1	0.1%	6
O=C(N/N=C/c1ccc[nH]1)c1cc2ccccc2cc1O	10	-0.2	-17	-12%	-11	1.1%	-12
Cc1cccc(C)c1NC(=S)NC(C)(C)CO	nt	-3.1	-14	10%	25	-0.8%	nt
O=C(NCc1ccco1)c1ccccc1NS(=O)(=O)c1ccc(Cl)s1	7	-2.2	-7	12%	-1	18%	-1
COc1ccc(CN(C)CC(=O)Nc2cccc(S(=O)(=O)N(C)c3ccccc3)c2)c(OC)c1	8	-2.9	-8	nt	-27	0.4%	-22
Cc1cc(F)ccc1NC(=O)C1CCN(C(=O)Nc2ccccc2)CC1	?	-6.5	-5	nt	8	-1.0%	5
COc1ccc(COC(=O)NC(C(=O)O)c2ccccc2)cc1 (stereo not given)	16	-3.0	-11	nt	7	-0.1%	-20
CC12CCC(=O)N1C(C(=O)NCCN1C(=O)S/C(=C\c3ccccc3Cl)C1=O)CS2 (stereo not given)	11	-1.6	-9	nt	0	2.7%	nt
COc1ccc(-n2c(N)c(C(=O)NCc3ccco3)c3nc4ccccc4nc32)cc1	7	-2.7	-14	25µM*	-12	?	-11
O=C(CCN1CCN(C(=O)c2ccco2)CC1)Nc1ccc(F)cc1	3	0.2	-13	15%	-9	0.7%	6
